AID504770 = E. coli YBA685 growth inhibition, screen for V. cholerae RctB inhibitors; E. coli YBA685 rctB-dependent plasmid, OD600 growth, 3 h; active compounds read low; z-score (concentration not given with the values); actives 0.27% (n = 130,000); AID 504770;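 active means z-score under -2 on both plates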;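 further: wells of about 30 µL received 100 nL stock; score is relative to mean and SD of the test wells; the first replicate is given; strong numbers were not always called active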
Ba CapD inh = blocks the Bacillus anthracis CapD enzyme | purified CapD enzyme, fluorescence intensity read-out; active compounds read low; some hits fall short of the stated cut | z-score (no concentration beside the values) | actives 0.23% (n = 140,000);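 active means z-score under -4 in either of two replicates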;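 further: stock transfer was 100 nL into about 40 µL; score is relative to mean and spread of the plate; one replicate is shown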
The depositor's hits bear a star.

How did Cc1ccc(Cn2cc[nH]c(=O)c2=O)cc1 do in these assays?
AID504770: -0.55; Ba CapD inh: -0.81

How did FC(F)(F)c1cccc(N=C=S)c1 do in these assays?
AID504770: 0.2

What do the screens show for `CSCCC(CO)NC(=O)CNC(=O)c1cccnc1` (centres undefined)?
Ba CapD inh: -0.435

How did O=C(NCc1ccco1)c1ccc(COCC(F)(F)F)cc1 do in these assays?
AID504770: 0.05; Ba CapD inh: -0.19

How did COc1ccc(NC(=S)N(Cc2c(C)noc2C)c2ccccc2)cc1 do in these assays?
AID504770: -0.55

Results for O=C(O)C1CC=CCC1C(=O)NCc1cccnc1 (centres undefined) ?
AID504770: 0.1; Ba CapD inh: 0.025

How did CSCCC1C(C#N)=C(N)Oc2n[nH]c(-c3cccs3)c21 (centres undefined) do in these assays?
AID504770: -0.55; Ba CapD inh: 0

Results for c1ccc(CSc2nn3cnnc3s2)cc1 ?
AID504770: -0.05; Ba CapD inh: 0.34

What do the screens show for `N#Cc1c(C(F)(F)F)cc(-c2cccs2)nc1SCC(=O)NC1CC1`?
Ba CapD inh: 3.9

Results for COc1cc2[nH]c(=O)n(CCC(=O)N3CCN(c4cccc(C(F)(F)F)c4)CC3)c(=O)c2cc1OC ?
AID504770: -1.2; Ba CapD inh: 3.89

How did CC(=O)c1ccc(S(=O)(=O)N2CCN(CCN3CCOCC3)CC2)cc1 do in these assays?
Ba CapD inh: -0.405

Results for CN(CC1CCCO1)S(=O)(=O)c1ccc(C(=O)Nc2sccc2C(N)=O)cc1 (centres undefined) ?
AID504770: 0.9

Results for Cc1ccc(C)c(N(C)C(=O)CCS(=O)(=O)c2cccc3nonc23)c1 ?
Ba CapD inh: 0.29

How did COc1cccc(C2=N/C(=C\c3ccccc3OC)C(=O)N2c2ccccc2Cl)c1 do in these assays?
Ba CapD inh: -0.43

What do the screens show for `CN1CCN(C(=O)CCC(=O)N2CCC(c3nc(-c4cccs4)no3)CC2)CC1`?
Ba CapD inh: -0.275

Next section; it opens with the six that closed the last part.
Results for COc1cc2[nH]c(=O)n(CCC(=O)N3CCN(c4cccc(C(F)(F)F)c4)CC3)c(=O)c2cc1OC ?
AID504770: -1.2; Ba CapD inh: 3.89

How did CC(=O)c1ccc(S(=O)(=O)N2CCN(CCN3CCOCC3)CC2)cc1 do in these assays?
Ba CapD inh: -0.405

Results for CN(CC1CCCO1)S(=O)(=O)c1ccc(C(=O)Nc2sccc2C(N)=O)cc1 (centres undefined) ?
AID504770: 0.9

Results for Cc1ccc(C)c(N(C)C(=O)CCS(=O)(=O)c2cccc3nonc23)c1 ?
Ba CapD inh: 0.29

How did COc1cccc(C2=N/C(=C\c3ccccc3OC)C(=O)N2c2ccccc2Cl)c1 do in these assays?
Ba CapD inh: -0.43

What do the screens show for `CN1CCN(C(=O)CCC(=O)N2CCC(c3nc(-c4cccs4)no3)CC2)CC1`?
Ba CapD inh: -0.275

Results for CC(=O)Nc1cccc(-c2cn3cccc(C)c3n2)c1 ?
AID504770: 1.6; Ba CapD inh: 41.2

How did CCOC(=O)CNS(=O)(=O)c1cc(-c2nnc(Nc3ccc(Br)cc3)c3ccccc23)ccc1C do in these assays?
Ba CapD inh: -0.38

What do the screens show for `CCCN(c1nc(C)c(Br)c(OC)n1)S(=O)(=O)c1ccc(C)cc1`?
Ba CapD inh: -0.02

Results for Cn1c(C(=O)NCc2cccc(C(F)(F)F)c2)cc2cc(S(C)(=O)=O)ccc21 ?
Ba CapD inh: -0.385

How did COCc1c(C(=O)N2CCN(S(=O)(=O)c3cccs3)CC2)oc2ccccc12 do in these assays?
AID504770: -0.35

How did COc1cccc2c1NC(c1cccc3ccccc13)C1CC=CC21 (centres undefined) do in these assays?
Ba CapD inh: 0.02

What do the screens show for `O=C(Nc1sc2c(c1-c1nc3ccccc3s1)CCCC2)c1ccc(S(=O)(=O)N2CCc3ccccc32)cc1`?
Ba CapD inh: -0.32

What do the screens show for `CN1CCN(C(=O)C2CCCN(S(=O)(=O)c3ccc(Br)cc3)C2)CC1` (centres undefined)?
AID504770: -0.6; Ba CapD inh: 0.07

What do the screens show for `CCCCCC#CCCOC(=O)NNC(=O)Cc1ccc(OC)cc1OC`?
Ba CapD inh: -0.26

What do the screens show for `CC(c1nnc(SCC(=O)N2CC(=O)Nc3ccccc32)n1Cc1ccccc1)N(C)C` (centres undefined)?
AID504770: -0.75

How did C=CCN1C(=O)N(c2cccc(C)c2)C(=O)C1CC(=O)Nc1cc(OC)cc(OC)c1 (centres undefined) do in these assays?
AID504770: 0.65; Ba CapD inh: -0.56

Results for N#Cc1ncoc1-c1ccccc1Cl ?
AID504770: -1.1; Ba CapD inh: -0.305

How did CCOC(=O)C1=C(C)N=c2s/c(=C\c3ccc(N(C)C)cc3)c(=O)n2C1c1ccc(OC)cc1OC (centres undefined) do in these assays?
Ba CapD inh: -0.375

Results for Cc1ccc(NC(=O)c2ccc(CSc3ccccn3)cc2)c(C)c1 ?
AID504770: 1.1; Ba CapD inh: -0.115

How did O=C1CC(c2ccccc2)CC(=O)C1=CN1CCCC1 (centres undefined) do in these assays?
AID504770: -0.95

The last two compounds of the section above are carried over, then new ones follow.
Results for Cc1ccc(NC(=O)c2ccc(CSc3ccccn3)cc2)c(C)c1 ?
AID504770: 1.1; Ba CapD inh: -0.115

How did O=C1CC(c2ccccc2)CC(=O)C1=CN1CCCC1 (centres undefined) do in these assays?
AID504770: -0.95

How did O=C(CSc1ccc(Cl)cc1)Nc1cscc1S(=O)(=O)c1ccc(Cl)cc1 do in these assays?
AID504770: 0.25; Ba CapD inh: 0.41

How did COCC(C)NC(N)=O (centres undefined) do in these assays?
AID504770: 0.65

How did FC(F)(F)c1nn2cc(-c3ccccc3)nc2s1 do in these assays?
Ba CapD inh: -0.4

What do the screens show for `CCOC(=O)c1ccc(NC(=O)CSc2nc3ccccc3c(=O)n2CCC(=O)NCCc2ccccc2)cc1`?
Ba CapD inh: -0.525

How did Cc1c(C(=O)NCC2CCCO2)sc2ncnc(N3CCOCC3)c12 (centres undefined) do in these assays?
Ba CapD inh: 0.28

How did O=C(C1CC1)N1N=C(C2CCCCC2)CC1(O)C(F)(F)F (centres undefined) do in these assays?
AID504770: 0.1; Ba CapD inh: -0.8

How did O=C(CSc1nc2ccccc2o1)N1N=CCC1c1ccccc1 (centres undefined) do in these assays?
AID504770: -0.05; Ba CapD inh: 0.395

Results for COc1ccc(NC(=O)C(C)NC(=O)c2ccco2)cc1NS(=O)(=O)c1ccc(F)cc1 (centres undefined) ?
AID504770: 0.15

How did O=C(Nc1ccc2ccccc2n1)c1cc(Cl)sc1Cl do in these assays?
AID504770: -0.3; Ba CapD inh: 0.305

How did CC(=O)NCc1ccccc1S(=O)c1ccccc1C(=O)O (centres undefined) do in these assays?
AID504770: 0.15; Ba CapD inh: 0.185

How did CCOc1ccc2c3c(c(=O)oc2c1)CCCC3 do in these assays?
Ba CapD inh: 40.8

What do the screens show for `CCN(CC)c1ccc(C2C3=C(CC(c4ccc(F)cc4)CC3=O)Nc3ccccc3N2C(=O)CCC(=O)O)cc1` (centres undefined)?
Ba CapD inh: -0.785

What do the screens show for `O=C(c1cc2n(n1)CCCN(Cc1ccccc1)C2=O)N1CCCCCC1`?
AID504770: -1.05; Ba CapD inh: 0.21

Results for CCCn1c(-c2ccc(S(=O)(=O)N3CCOCC3)cc2)csc1=Nc1ccccc1 ?
AID504770: 0.3; Ba CapD inh: -0.645

Results for Cc1ccc(N2C(=O)CSC2c2ccc(Cl)c(Cl)c2)cc1Cl (centres undefined) ?
Ba CapD inh: -0.815

Results for CCOC(=O)C(C=Nc1ccc(Cl)cc1Cl)C(C)=O (centres undefined) ?
Ba CapD inh: 0.165

What do the screens show for `O=C(CCC(=O)Nc1nc(-c2cc3ccccc3oc2=O)cs1)NCc1ccco1`?
AID504770: -0.4; Ba CapD inh: 9.65

Results for Cc1cc2c(cc1C)CSC(c1ccccc1)SC2 ?
AID504770: -1.1; Ba CapD inh: 0.73

How did COc1cc(C2CC(=O)Nc3ccc4ccccc4c32)cc(OC)c1O (centres undefined) do in these assays?
Ba CapD inh: 0.135

What do the screens show for `CN1C(C/C(=N\NC(N)=O)c2ccccc2)CCCC1CC(O)c1ccccc1` (centres undefined)?
AID504770: 0.3

How did Cc1cc(C(=O)COC(=O)C2COc3ccccc3O2)c(C)n1-c1cccc(S(=O)(=O)N2CCOCC2)c1 (centres undefined) do in these assays?
AID504770: 0.5

What do the screens show for `Cc1ccccc1Cn1cnc2sc3c(c2c1=O)CCCC3`?
Ba CapD inh: -0.495

Results for O=C(O)CCc1n[nH]c2c1CCCC2 ?
AID504770: 2.15

What do the screens show for `Cc1c(C(=O)N2CCN(c3ccccc3)CC2)sc2ncn(CC(=O)Nc3cccc(C(F)(F)F)c3)c(=O)c12`?
Ba CapD inh: -0.11

How did Cc1onc(-c2ccccc2)c1C(=O)NNc1ccc(C(C)(C)C)cc1 do in these assays?
AID504770: -0.7; Ba CapD inh: 0.6

What do the screens show for `CC1=C2C(N)=C(C(=O)Nc3ccccc3)SC2NC(C(F)(F)F)=C1` (centres undefined)?
AID504770: -0.05

What do the screens show for `CCCc1ccc(-c2nc(CS(=O)(=O)C(C)(C)C)no2)cc1`?
AID504770: 0.9; Ba CapD inh: -1.3

Results for CC1=Nc2ccc([N+](=O)[O-])cc2C1(C)C ?
Ba CapD inh: -0.795

How did Cc1nc(CC(=O)NN)cs1 do in these assays?
AID504770: 0.65

What do the screens show for `Cc1nn(C)c(C)c1NC(=S)Nc1ccc(S(=O)(=O)Nc2ncccn2)cc1`?
AID504770: -0.45; Ba CapD inh: 0.425

Results for CC(C)(C)c1ccc(S(=O)(=O)Nc2ccc3oc4c(c3c2)CC(C(C)(C)C)CC4)cc1 (centres undefined) ?
Ba CapD inh: -0.145

Results for Cc1ccc(-c2ocnc2C(=O)Nc2ccccc2NC(=O)c2ccccn2)cc1 ?
AID504770: -0.7

What do the screens show for `N#CCCn1cc(/C=N/NC(=O)C23CC4CC(CC(C4)C2)C3)c(-c2ccccc2)n1`?
AID504770: 0.45

How did C(=Nc1cccc(N=Cc2ccsc2)c1)c1ccsc1 do in these assays?
AID504770: 0.15; Ba CapD inh: 0.215

How did CN1CCN(c2ccc(CNC(=O)c3ccc4nsnc4c3)cc2)CC1 do in these assays?
AID504770: 1.9; Ba CapD inh: -0.93

How did FC(F)(F)c1ccc(N2CCCCCC2)nc1 do in these assays?
AID504770: -0.8; Ba CapD inh: 2.64

How did COc1ccccc1NCc1ccccc1O do in these assays?
AID504770: 0.4

How did O=C(NC1CCCC1)c1ccc(N2CCOc3ccccc32)s1 do in these assays?
AID504770: -1.05; Ba CapD inh: 26.9

What do the screens show for `c1ccc2c3c([nH]c2c1)-c1ccsc1CC3`?
AID504770: 0.25

How did CCOc1cc(S(=O)(=O)N(C)C2CCCCC2)c(OCC)cc1-n1cnnn1 do in these assays?
AID504770: 0.15

What do the screens show for `Cc1c(N=Cc2ccccc2OCC#N)c(=O)n(-c2ccccc2)n1C`?
Ba CapD inh: -0.135

How did Cc1c(S(=O)(=O)N(C)c2ccccc2)sc2ccc(Cl)cc12 do in these assays?
AID504770: 0.4; Ba CapD inh: 0.285

What do the screens show for `Cc1cc(C)n(CCCNC(=O)CCc2ccc(S(=O)(=O)N3CCOCC3)cc2)n1`?
AID504770: 0.2

How did Cc1cc(CNC(C)c2ccco2)c(C)n1-c1ccnn1C(C)C (centres undefined) do in these assays?
AID504770: -0.2

What do the screens show for `CSc1scc(-c2cccs2)c1C#N`?
AID504770: -0.45; Ba CapD inh: -0.495

What do the screens show for `CCCCCCC(=O)Nc1cccc(C(=O)N/N=C/c2ccc(C(F)(F)F)cc2F)c1`?
Ba CapD inh: 0.255

Results for CC1(C)N([O-])c2ccccc2[N+]1=O ?
AID504770: -3.95*; Ba CapD inh: -0.275

Results for CCOC(=O)c1cnc2nc(NCc3ccc(Cl)cc3)[nH]n2c1=O ?
AID504770: -0.5; Ba CapD inh: 113

Results for CC(C)(C)c1ccc(C(=O)O)cc1[N+](=O)[O-] ?
Ba CapD inh: 0.315

How did CCc1oc2cc(O)ccc2c(=O)c1-c1nc2ccccc2n1C do in these assays?
AID504770: -0.05; Ba CapD inh: 4.21

What do the screens show for `CCOC(=O)c1cc(C#N)c(C)nc1N1CCN(C(=O)OCCc2ccc3ccccc3c2)CC1`?
Ba CapD inh: 0.455

How did Cc1cc(-c2ccccc2)cc(-c2ccccc2)[o+]1 do in these assays?
AID504770: -0.1; Ba CapD inh: 0.1

Results for Nc1ccccc1C(=O)NNC(=O)c1ccc(Cl)cc1 ?
Ba CapD inh: 3.24

Results for Cc1ccc(-c2cc(NC(=O)CC(C)C)on2)cc1 ?
AID504770: 0.45; Ba CapD inh: 1

How did O=C(OCCCc1ccccc1)N1CCC(N2CCCCC2)CC1 do in these assays?
Ba CapD inh: -0.795

How did N#Cc1ccc(-c2ccc(Oc3ncccn3)cc2)cc1 do in these assays?
AID504770: -1.45

How did O=C(c1ccccc1)N(Cc1cc2cccc3c2n(c1=O)CCC3)c1cccc(C(F)(F)F)c1 do in these assays?
Ba CapD inh: -0.455

How did CCCn1c(=S)[nH]c2c1c(=O)[nH]c(=O)n2C do in these assays?
AID504770: -0.7

What do the screens show for `Cc1cc(C)nc(N2CCN(Cc3cccc(Cl)n3)CC2)n1`?
Ba CapD inh: 0.005

Results for CC(C)(C)c1ccc2c(c1)CN(C(C)(C)C)CO2 ?
AID504770: -0.45; Ba CapD inh: 0.13

Results for Cc1ccccc1N1C(=O)C(O)C(O)C1=O (centres undefined) ?
AID504770: 0.3; Ba CapD inh: -0.9

How did O=C(NC1C2CC3CC(C2)CC1C3)c1cccnc1 (centres undefined) do in these assays?
AID504770: 0.3

How did CCc1c(CN2CCCCC2)csc1C do in these assays?
AID504770: -0.3; Ba CapD inh: 0.16

Results for COc1ccc(COC(=O)c2cc(O)c3ccccc3c2O)cc1F ?
AID504770: -0.1

Two records picked at random from those above:
What do the screens show for `Cc1c(N=Cc2ccccc2OCC#N)c(=O)n(-c2ccccc2)n1C`?
Ba CapD inh: -0.135

How did CSCCC1C(C#N)=C(N)Oc2n[nH]c(-c3cccs3)c21 (centres undefined) do in these assays?
AID504770: -0.55; Ba CapD inh: 0

High-throughput results as filed in PubChem BioAssay.
